H5N1 CPE: MDCK cell protection from H5N1 avian flu; inhibition, % at 50 µM; 96,000 tested, 0.07% active; cytopathic effect, luminescence, 72 h; active compounds read high; no value below 0 was filed and about half of the inactive calls have no number; reference of the scale not given here; AID 740, 2007; in the data active means inhibition above about 25%
* marks the source's active call; other numbers are inactive results; i = inactive.

SMILES	H5N1 CPE
Cc1ccc(-c2noc(CCC(=O)NC3CCCc4ccccc43)n2)cc1 (stereo unspecified)	0.6
CC1CCCCN1Cc1nc2c(c(=O)n(C)c(=O)n2C)n1CCc1ccccc1 (stereo unspecified)	4.2
O=S(=O)(NCc1ccncc1)c1ccc(Br)s1	3.2
CC(C)Oc1nnnn1-c1ccccc1	0.4
CCOC(=O)c1cc2sccc2n1CC(=O)Nc1ccc2c(c1)OCCO2	i
Cc1c(Cl)cccc1NC(=O)NC1CCCCC1	0.2
C/C(N)=C(/C#N)C(=O)COC(=O)c1ccc(C)c(S(=O)(=O)N2CCCCC2)c1	1.1
Cc1cccc(NC(=O)c2cc(NC(=O)c3ccco3)ccc2N2CCCCC2)c1	i
COc1ccc(C(CC(=O)c2ccccc2)C2CCCCC2=O)cc1 (stereo unspecified)	i
COc1ccc(-c2nnc(SCC(=O)N3CCOCC3)o2)cc1OC	0.0
Fc1ccccc1CSc1nnnn1-c1ccc2c(c1)OCO2	0.8
CCCn1nnc(NCc2ccc(OCc3cccs3)c(OC)c2)n1	i
Cc1ccc(-c2csc(N/N=C/C=C/c3ccccc3)n2)cc1	i
CCC(Oc1ccccc1)C(=O)Nc1ccccc1OC (stereo unspecified)	i
O=C(NCCc1ccc2c(c1)OCCO2)c1cc2ccccc2o1	i
COc1ccc(-n2c(/C=C(\C)O)nc(=O)c3c(C)cc(C)nc32)cc1	4.3
Cc1nc2ccccc2nc1N1CCOCC1	0.8
CC(=O)Nc1ccc(S(=O)(=O)NC2=NCN(CCOC(=O)c3ccccc3)CN2)cc1	0.9
Cc1c(Br)ccc(NC(=O)CCN2C(=O)C3C4CCC(C4)C3C2=O)c1C (stereo unspecified)	1.1
O=C(CN(C(=O)CCC(=O)Nc1nccs1)c1ccc(F)c(Cl)c1)NCc1ccco1	0.5
Nc1ncnc(Nc2cccc(C(F)(F)F)c2)n1	i
COc1ccccc1NC(=O)Cc1noc(CSc2nnc(C)s2)n1	0.1
CC(C)Sc1nnc(Cn2c(=O)sc3ccccc32)n1-c1ccccc1	7.0
O=C(NC1CC1)c1ccc(COc2ccc(F)cc2)o1	i
CCN1CCN(CC(=O)Nc2c(C(=O)OC)[nH]c3cccc(Cl)c23)CC1	i
N#CC1=C(N)Oc2nc(-c3ccccc3)[nH]c2C1c1cccnc1 (stereo unspecified)	i
COCCNC(=O)C(c1cccs1)N(Cc1ccccc1)C(=O)Cn1nnc2ccccc21 (stereo unspecified)	i
CCCOc1ccc(C(=O)NC(=S)Nc2nc3ccc(C)cc3s2)cc1	i
COc1ccc(C2CC(C(F)(F)F)n3nc(CO)c(Cl)c3N2)cc1OC (stereo unspecified)	i
Cc1ccc(C(=O)CN2CCC(NC(=O)C3CCCCC3)CC2)cc1	i
CN(C)S(=O)(=O)N1CCN(S(=O)(=O)N(C)C)CC1	i
O=C(NCCN1C(=O)C2C3C=CC(C3)C2C1=O)N1CCCCC1 (stereo unspecified)	0.4
CCOc1ccc(S(=O)(=O)Nc2cccc(OC)c2)cc1	0.6
COc1ccc(OC)c(C(O)c2coc3ccc(O)c(CN4CCOCC4)c23)c1 (stereo unspecified)	i
Cc1cc(C(=O)OCC(=O)NCc2ccco2)c(C)n1-c1ccccc1	i
Cc1cccc(NC2=CC(=O)OC(C)C2)c1 (stereo unspecified)	i
COc1ccc(NC(=O)CN2CCC(C)CC2)c([N+](=O)[O-])c1	0.8
COc1ccc(NC(=O)Nc2ccccc2C(N)=O)cc1OC	i
Cc1nnc(NC(=O)CSc2nnc(CNC(=O)C34CC5CC(CC(C5)C3)C4)n2C2CCCCC2)s1	0.2
CCC(CC)C(=O)Nc1cc(OC)c(OC)cc1C(=O)O	0.4
COc1cc(NS(C)(=O)=O)c(OC)cc1NC(=O)c1cccc(F)c1	1.4
Cc1cccc(OCc2nc(-c3nonc3N)no2)c1C	i
Cn1c2ccccc2c2c(C(=O)N3CCN(C(=O)c4ccco4)CC3)cn(C3CCCCC3)c(=O)c21	0.4
COc1ccc(CCNC(=O)Cn2c(-c3nonc3N)nc3ccccc32)cc1OC	0.1
Cc1cccc(N2CCN(C(=O)c3cc4ccccc4oc3=O)CC2)c1C	0.3
O=C(Nc1cccc2ncccc12)c1ccc(-c2ccc(Br)cc2)o1	2.0
COc1cc(C2=NOC(C(=O)N3CCOCC3)C2)cc(OC)c1OC (stereo unspecified)	i
CC(Sc1nc(-c2ccccc2)cc(C(F)(F)F)n1)C(=O)NCCN1CCOCC1 (stereo unspecified)	i
CCOc1ccc(-c2cc(CCCC(=O)Nc3cccc(OC)c3)no2)cc1	i
O=C(Nc1ccccn1)C1CCN(S(=O)(=O)c2cccc3nonc23)CC1	0.8
Additional results
SMILES	H5N1 CPE
Cc1cc(C)nc(NC2=NC3CCCCC3N2)n1 (stereo unspecified)	0.1
CC(OC(=O)c1ccccc1NCc1ccco1)C(=O)Nc1ncc(Cl)cc1Cl (stereo unspecified)	1.6
CCN(C1CCCCC1)S(=O)(=O)c1ccc(OC)c(C)c1	1.4
O=C(c1ccc(F)cc1)C1CCN(C(=O)c2ccncc2)CC1	0.5
Nc1c(C(=O)NCc2ccccc2)nnn1Cc1ccc(F)cc1	i
Cc1ccc(-c2onc3ccc(C=O)cc23)cc1	i
Nc1ncnc2c1ncn2CCOc1ccccc1	i
O=C(CSc1nc(-c2ccco2)cc(C(F)(F)F)n1)NCC1CCCO1 (stereo unspecified)	i
O=C(CSc1nnnn1-c1ccc2c(c1)CCC2)NCc1cccs1	i
CCOC(=O)N1CCN(C(c2cccnc2)c2ccc3cccnc3c2O)CC1 (stereo unspecified)	0.5
CCCc1nc2oc3c(OCC)ncnc3c2c2c1COC(C)(C)C2	1.0
COCCn1c(SCC(=O)Nc2nnc(C)s2)nnc1-c1ccncc1	0.1
CC1Cc2ccccc2N1C(=O)COC(=O)Cn1nnc(-c2ccccc2)n1 (stereo unspecified)	0.2
O=C(COc1ccccc1Br)NCc1ccccn1	3.0
C=CCOc1c2ccc(C(=O)NC3CCCc4ccccc43)cc2nn1C (stereo unspecified)	0.6
COc1ccc(-n2[nH]c(C)cc2=O)cc1	0.5
CCOC(=O)c1cc(-c2ccc3c(c2)OCCO3)nc2c1c(C)nn2CCC#N	6.3
O=C(NC1CCCCC1)c1cc([N+](=O)[O-])ccc1N1CCCCC1	0.6
Cc1ccc2c(c1)NC(=O)C(CC(=O)NCCCN1CCN(C3CCCCC3)CC1)O2 (stereo unspecified)	1.3
O=C(c1cc(-c2cccs2)nc2ccccc12)N1CCN(S(=O)(=O)c2ccccc2)CC1	2.4
CC1CCCCN1CCNC(=O)c1cc2c(=O)n(C)c3ccccc3c2n1C (stereo unspecified)	i
O=c1c2ccccc2nc2c3ccccc3c3nncn3n12	8.3
O=C(C1CC1)N1CCc2cc(S(=O)(=O)NCCC3=CCCCC3)ccc21	0.1
CC(C)OC(=O)CN1C(=O)C(C)(C)Oc2ccc(C(=O)NC(C)(C)C)cc21	0.2
C#CCOC(=O)c1ccccc1C(=O)n1nnc2ccccc21	i
O=C(Nc1ccccc1)OCc1ccccn1	1.9
CC1Cc2cc(C(=O)O)ccc2O1 (stereo unspecified)	i
CCOc1cc(CN2CCN(c3cccc(C(F)(F)F)c3)CC2)ccc1O	i
COc1ccc2cc(C#N)c(N3CCN(Cc4nnnn4CCC(C)C)CC3)nc2c1	0.8
CC(C)OC(=O)CSc1nc2ccccc2s1	i
COc1cc(OC)c(C2=NOC(C(=O)NCc3ccc4c(c3)OCO4)C2)cc1Cl (stereo unspecified)	0.9
COCCNC(=O)C1CC(c2cccc(OC)c2)=NO1 (stereo unspecified)	0.7
CCCOc1ccccc1C1CC(=O)Nc2cc3c(cc21)OCO3 (stereo unspecified)	0.1
Cc1ccc2oc(-c3ccccc3)nc2c1	i
O=C(Nc1ccccc1OC(F)F)c1ccc(F)cc1	0.5
Cn1cccc1Cc1nnc(SCC(=O)Nc2ccccc2F)n1-c1ccc(F)cc1	2.4
COc1ccc(-c2cc(=O)[nH][nH]2)cc1OC	0.3
O=C(NCc1ccccc1)N1CCN(c2ccc(Cl)c(Cl)c2)CC1	i
CCCC(C)C(=O)Nc1nc(C)c(-c2csc(Nc3cc(Cl)ccc3C)n2)s1 (stereo unspecified)	1.9
O=C(Nc1cc(C(=O)N2CCOCC2)cc(C(=O)N2CCOCC2)c1)c1cc(F)c(F)cc1Cl	0.4
CCOC(=O)c1c(NC(=O)CSc2nnc(CNc3ccc(OC)cc3)n2C)sc(C)c1C	1.6
COc1ccccc1NC(=O)Cc1coc2cc(C)ccc12	0.2
O=C(COC(=O)C1CC1)Nc1ccc(Oc2ccccc2)cc1	i
CCOC(=O)C1=C(C)N=C2c3ccccc3C(=O)C2C1c1ccc(C)cc1 (stereo unspecified)	0.2
CCOC(=O)C1CCN(C(=O)CN(c2cccc(C(F)(F)F)c2)S(C)(=O)=O)CC1	0.2
Nn1c(SCC(=O)Nc2ccccc2F)nnc1-c1cccnc1	1.6
CCOC(=O)CNC(=O)c1cc(C)oc1C	i
O=C(CNc1ccccc1)Nc1ccc(F)cc1	i
Cc1occc1C(=O)NCc1ccccn1	0.2
Cc1[nH]n(-c2ccc([N+](=O)[O-])cc2)c(=O)c1C=NCCN1CCN(C(=O)c2ccccc2F)CC1	i
Further records follow:
SMILES	H5N1 CPE
COc1cc(NC(=O)COc2cccc(OC)c2)cc(OC)c1	i
CCNc1nc(NC(C)(C)C)nc(SC(C(C)=O)C(C)=O)n1	2.7
COc1ccc(NC2=NCC(=O)N2Cc2cccs2)cc1	1.6
COc1ccc(-c2nc(CS(=O)CC(=O)NCc3ccc(Cl)cc3)c(C)o2)cc1 (stereo unspecified)	i
CCN(C(C)=O)c1cccc2ccccc12	2.0
CCCC1=C(C(=O)OCC)C2(C(=O)Nc3ccccc32)C(C#N)=C(N)O1 (stereo unspecified)	i
Cc1cc(C)cc(NC(=O)C2CCN(S(=O)(=O)c3c(C)n[nH]c3C)CC2)c1	i
CC(C)Cc1ccc(C(C)C(=O)Nc2nccs2)cc1 (stereo unspecified)	0.3
Nc1cc(N)nc(SCC(=O)N2CCc3ccccc32)n1	0.8
CC1Cc2ccccc2N1C(=O)CN1C(=O)C(=O)N(Cc2ccccc2)C1=O (stereo unspecified)	i
CCOC(=O)N1CCN(C(=O)c2cccc(NC3=NC4CS(=O)(=O)CC4S3)c2)CC1 (stereo unspecified)	i
Cc1ccc(C(=O)N2CCN(c3ccc(Cl)cc3)CC2)cc1	0.8
CC1(C)COC(c2cccn2Cc2ccc(F)cc2Cl)=N1	i
Cc1ccc(CNCC(O)(c2ccccc2)c2ccc(F)cc2)cc1 (stereo unspecified)	0.3
CCC(c1nnnn1CCOC)N1CCN(Cc2ccccc2OC)CC1 (stereo unspecified)	i
CC1CCc2nc(NCCO)nc(C(F)(F)F)c2C1 (stereo unspecified)	i
Cn1c(SCC(=O)N2CCc3ccccc32)nnc1C1CC1	0.2
Cc1ccc(CCNC(=O)C2CCN(S(=O)(=O)c3cccc4nonc34)CC2)cc1	2.2
CC1=C(C(=O)OCC2CCCO2)C(c2ccccc2)NC(=O)N1 (stereo unspecified)	i
[O-]/[N+](=C\c1ccc(F)cc1)c1ccccc1	i

18 entries from above, arranged by formula weight, largest number first:
SMILES	H5N1 CPE
Cn1c2ccccc2c2c(C(=O)N3CCN(C(=O)c4ccco4)CC3)cn(C3CCCCC3)c(=O)c21	0.4
O=C(CN(C(=O)CCC(=O)Nc1nccs1)c1ccc(F)c(Cl)c1)NCc1ccco1	0.5
CC(OC(=O)c1ccccc1NCc1ccco1)C(=O)Nc1ncc(Cl)cc1Cl (stereo unspecified)	1.6
COc1cc(OC)c(C2=NOC(C(=O)NCc3ccc4c(c3)OCO4)C2)cc1Cl (stereo unspecified)	0.9
O=C(Nc1ccccn1)C1CCN(S(=O)(=O)c2cccc3nonc23)CC1	0.8
CC1CCCCN1CCNC(=O)c1cc2c(=O)n(C)c3ccccc3c2n1C (stereo unspecified)	i
CCN1CCN(CC(=O)Nc2c(C(=O)OC)[nH]c3cccc(Cl)c23)CC1	i
COc1ccccc1NC(=O)Cc1noc(CSc2nnc(C)s2)n1	0.1
O=C(CSc1nnnn1-c1ccc2c(c1)CCC2)NCc1cccs1	i
Cc1ccc(-c2noc(CCC(=O)NC3CCCc4ccccc43)n2)cc1 (stereo unspecified)	0.6
CCCn1nnc(NCc2ccc(OCc3cccs3)c(OC)c2)n1	i
O=C(COc1ccccc1Br)NCc1ccccn1	3.0
N#CC1=C(N)Oc2nc(-c3ccccc3)[nH]c2C1c1cccnc1 (stereo unspecified)	i
CCOc1ccc(S(=O)(=O)Nc2cccc(OC)c2)cc1	0.6
CCC(CC)C(=O)Nc1cc(OC)c(OC)cc1C(=O)O	0.4
O=C(Nc1ccccc1OC(F)F)c1ccc(F)cc1	0.5
Cc1c(Cl)cccc1NC(=O)NC1CCCCC1	0.2
Cc1cccc(NC2=CC(=O)OC(C)C2)c1 (stereo unspecified)	i

(next part)
SMILES	H5N1 CPE
CC1CCN(S(=O)(=O)c2ccc(Cl)cc2Br)CC1	0.6
COc1ccc(CCn2c(O)c(C=NCCCO)c(=O)[nH]c2=O)cc1OC	1.0
Cc1ccc(C(=O)Nc2ncc(C)s2)o1	i
COCn1c(COc2ccccc2)nc2ccccc21	i
Cc1cc(N2CCN(C(c3ccccc3)c3ccccc3)CC2)n2ncnc2n1	0.7
CCOc1cccc(/C(O)=C2/C(=O)C(=O)N(CCOC)C2c2ccco2)c1 (stereo unspecified)	i
O=C(NCC1CCCO1)c1cccc(NC(=O)c2ccco2)c1 (stereo unspecified)	1.7
CCCn1c(CN2CCN(C)CC2)nc2ccccc21	i
O=c1cc(CNCCCO)c2ccccc2[nH]1	1.0
O=C(OCc1nnc(-c2ccccc2)o1)c1cc(S(=O)(=O)N2CCOCC2)c(Cl)cc1Cl	0.3
Nn1c(=O)c2ccccc2n2c(SCc3ccccc3)nnc12	0.4
O=P(O)(O)COc1ccccc1P(=O)(c1ccccc1)c1ccccc1	0.3
COc1cc(CN2CCN(C(=O)COc3ccccc3)CC2)cc(OC)c1OC	i
CCSc1nnc(NC(=O)Cc2cccc(OC)c2)s1	1.2

Source: PubChem BioAssay (SRMLSC)

An excerpt, so the mix of outcomes need not match the whole.
